TSHR agonist = activates the human thyroid stimulating hormone receptor; AID 926; actives 0.48% (n = 73,000); HEK293-CNG-TSHR cells (CNG channel as cAMP sensor), membrane potential dye, cAMP; P16473; Potency, µM (doses to about 57.1 µM), for inactives: at the top dose activation, most hits filed as activators; active = well fitted activation curve of enough size with the parental cells flat; inconclusive = any curve in the parental cells; inactive = parental cells flat and receptor cells flat or falling; also: potency is read from the fitted curve at half-maximal effect; % of control where 0% means no effect; weak receptor curves with flat parental cells got no call and are not listed
Target sequence (P16473 whole entry, looked up): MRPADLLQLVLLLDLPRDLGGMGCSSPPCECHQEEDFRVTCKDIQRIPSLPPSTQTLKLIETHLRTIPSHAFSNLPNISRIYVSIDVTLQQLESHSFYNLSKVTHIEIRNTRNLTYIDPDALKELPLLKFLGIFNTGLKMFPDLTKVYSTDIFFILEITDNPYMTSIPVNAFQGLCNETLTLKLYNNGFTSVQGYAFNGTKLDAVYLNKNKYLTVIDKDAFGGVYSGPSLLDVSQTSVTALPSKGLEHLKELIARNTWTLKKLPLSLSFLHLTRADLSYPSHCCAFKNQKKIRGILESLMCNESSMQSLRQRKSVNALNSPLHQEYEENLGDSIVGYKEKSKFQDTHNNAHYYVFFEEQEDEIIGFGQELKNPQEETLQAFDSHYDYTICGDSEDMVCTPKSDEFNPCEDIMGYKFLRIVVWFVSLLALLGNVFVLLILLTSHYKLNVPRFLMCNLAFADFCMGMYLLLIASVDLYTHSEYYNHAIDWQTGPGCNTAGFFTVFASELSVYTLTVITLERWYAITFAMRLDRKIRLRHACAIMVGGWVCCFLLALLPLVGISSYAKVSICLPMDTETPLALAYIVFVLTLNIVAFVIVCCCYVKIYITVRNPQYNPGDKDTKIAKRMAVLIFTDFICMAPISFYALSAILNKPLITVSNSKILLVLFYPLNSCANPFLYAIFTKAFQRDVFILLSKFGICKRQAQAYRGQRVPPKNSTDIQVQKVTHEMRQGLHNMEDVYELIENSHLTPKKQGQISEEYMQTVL
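HEK 293 cells stably expressing TSHR and a modified CNG channel, with CNG-only parental cells as counterscreen, were preloaded 60 min at room temperature with membrane potential dye containing 100 uM RO 20-1724. Compound exposure was 30 min, and depolarization was read as fluorescence at 590 nm.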
A488 autofl = compound autofluorescence in A488 spectral region; compound autofluorescence, A488 spectral region, dye equivalency; hits give high values; max dye equivalency, M; actives 0.1% (n = 59,000); AID 591; active = above 10 nM dye equivalent; inconclusive = 1 to 10 nM; inactive = 1 nM or less; about half of its hits are not listed in these tables;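 also: highest value over a series up to 38 µM; compound alone in buffer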
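Spectroscopic profiling in the A488 region: compounds in pH 8.0 Tris (100 mM), 15 min RT, CCD imaging with 480 nm excitation and 540 nm emission; responses normalized against A488 dye standards.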
AID923 = qHTS Assay for Allosteric/Competitive Inhibitors of Caspase-1: Spectroscopic Profiling in AFC Spectral Region | actives 1.1% (n = 75,000) | compound fluorescence, AFC spectral region (405/520 nm); almost no hit is shown here | Potency, µM (series often up to 57.5 µM), inactives show at the highest dose fluorescence increase, actives largely listed as activators; active = well fitted activation curve with a large enough effect; inconclusive = small, poorly fitted or top-dose-only effect;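 also: potency is read from the fitted curve at half-maximal effect; 0% is about no effect; scaled to a free AFC standard on each plate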
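Baseline compound fluorescence (AFC region, 405 nm ex/520 nm em) taken from the intercept of kinetic reads with 50 nM caspase-1 and 5 uM Ac-WEHD-AFC; normalized to an on-plate AFC standard curve; compounds titrated up to 57 uM.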
A647 fluor = compound autofluorescence in A647 spectral region; Compound fluorescence, A647 channel (570/671 nm), Tris buffer; max dye-equivalent concentration, M; 59,000 tested, under 10 active; active means above 1 µM dye equivalent; inconclusive means 0.1 to 1 µM; inactive means 0.1 µM or less;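 also: values scaled relative to a standard on each plate; highest value over a series up to 38 µM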
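Fluorescence read (570 nm ex, 671 nm em) after 15 min RT incubation of compounds in 100 mM Tris buffer, pH 8.0; values expressed as dye-equivalent concentration against a six-point A647 standard series on each plate.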
Resorufin autofl = compounds fluorescent in resorufin spectral region; Compound fluorescence, resorufin region 547/598 nm, buffer; hits give high values; max dye-equivalent concentration, M; actives 0.04% (n = 59,000); AID 588; active = above 10 nM dye equivalent; inconclusive = 1 to 10 nM; inactive = 1 nM or less; a few of its hits are not listed in these tables; also: highest value over a series up to 38 µM
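Tris 100 mM pH 8.0; compound added, 15 min RT; CCD imager read, ex 547 nm/em 598 nm; signal normalized to resorufin standard curve (six concentrations per plate) as dye-equivalent concentration.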
* = called active by the depositor; i = inactive; u = inconclusive; x = not tested or not shown; [ ] = remark or other dose. Some of the compounds tested; rates above refer to the full screens.

SMILES | TSHR agonist | A488 autofl | AID923 | A647 fluor | Resorufin autofl
Cc1ccc2nc(NC(=O)CN(C)S(=O)(=O)c3cccc4nsnc34)sc2c1 | u | i | 0.9% | 3e-09 | i
CCC(=O)c1cc2c(C)cc(=O)oc2c(C)c1O | 0%[11.4 µM] | i | 2.6% | 1e-09 | i
CSc1nc(O)c(C2OC(=O)c3ccccc32)c(=O)[nH]1 (centres undefined) | -4% | i | -0.4% | 2.6e-09 | i
O=C(CC1SCCNC1=O)Nc1cc(Cl)cc(Cl)c1 (centres undefined) | -10% | i | 1.5% | 1e-09 | i
COC(=O)Cn1ncn2cccc2c1=O | 4% | x | 0.0% | x | x
COc1ccccc1-c1noc(CCC(=O)Nc2ccccc2Cl)n1 | 0% | i | -2.8% | 1.8e-08 | i
O=S(=O)(Nc1ccc2c(c1)oc1ccccc12)N1CCCC1 | 3%[11.4 µM] | i | 1.1% | 1e-09 | i
COc1ccc(CC(=O)Nc2ccc(-c3nnc(-c4ccccc4)o3)cc2)cc1OC | -7% | i | -2.9% | 1e-09 | i
COc1cc(-n2cnnn2)ccc1S(=O)(=O)N1CCOCC1 | -4% | i | 2.0% | 1e-09 | i
Cc1cn(S(=O)(=O)c2ccc(Br)c3ccccc23)cn1 | 26% | x | -0.2% | x | x
CCOC(=O)c1[nH]cnc1C(=O)NC1CCCCC1 | 1% | i | -0.3% | 1e-09 | i
FC(F)(F)c1ccccc1-c1ccc2ncnc(NCc3cccnc3)c2c1 | u | i | -0.5% | 1.6e-09 | i
c1ccc2c(c1)nc1n2C2(N3CCOCC3)CCCC2C1N1CCOCC1 (centres undefined) | 2% | i | 11% | 3.5e-08 | i
C=CCn1c(SCC(N)=O)nnc1-c1cc(Br)ccc1O | -4% | i | -0.1% | 7.7e-09 | i
C[C@@H]1CC[C@H]2C(=O)O[C@H](CN=[N+]=[N-])CN2[C@@H]1c1ccc(Br)cc1 | u | x | -3.9%[11.5 µM] | x | x
O=C(c1cccc(F)c1)N1CCC2(CC1)CN(c1ccncc1)C2 | 4% | i | 2.1% | 2e-09 | i
CCOC(=O)NC(Nc1ccc(S(N)(=O)=O)cc1)(C(=O)OCC)C(F)(F)F (centres undefined) | 8% | i | -1.2% | 1e-09 | i
Clc1ccc(C(c2nnnn2C2CCCCC2)N(Cc2cccnc2)Cc2ccco2)cc1 (centres undefined) | u | i | 3.2% | 5.5e-09 | i
Cc1ccc(-c2nnc(CSc3nncn3N)o2)cc1 | 4% | i | -1.3% | 3.2e-08 | i
COc1ccc(C2(C(=O)O)CCCC2)cc1 | 11% | i | -2.5% | 9.3e-09 | i
CC1CN(C(=O)c2ccccc2)OC(c2ccc3c(c2)OCO3)O1 (centres undefined) | x | i | -0.6% | 1e-09 | i
CC1CCc2nn(CC(=O)NCc3ccc(F)cc3)cc2C1 (centres undefined) | 8% | x | -3.4% | x | x
CCOc1ccccc1N/C=C/C(=O)C(C)(C)C | 16% | i | 0.4% | 1e-09 | i
CCNC(=O)NC(=O)COC(=O)c1ccccc1SCC(=O)NC(=O)NCC | 6%[11.4 µM] | i | 4.5% | 2.7e-08 | i
O=C(Nc1ccccc1Cl)c1ccc2c(c1)N(Cc1ccc(F)cc1)C(=O)CS2=O (centres undefined) | u | x | 0.6% | x | x
(next part)
SMILES | TSHR agonist | A488 autofl | AID923 | A647 fluor | Resorufin autofl
COc1ccc(C(=O)N2CCC3(CC2)CN(c2ccccc2)C3)cc1 | 25% | i | 9.9% | 1e-09 | i
COc1ccccc1C(=O)N1CCN(C(=O)COc2cccc(C)c2)CC1 | -18% | i | -0.1% | 3.5e-08 | i
CCCOC(=O)Nc1ccccc1C(N)=O | -8% | x | 1.6% | x | x
COc1cc2c(C#N)c(N3CCOCC3)nc(N)c2c(N)n1 | -1% | i | 9.6% | 1e-09 | i
CCCS(=O)(=O)C(=C1NCCO1)S(=O)(=O)CCC | 0% | i | 1.5% | 3.5e-08 | i
Cc1nnc(C)n1/N=C/C=C/c1ccccc1 | 1% | i | 2.2% | 1.4e-09 | i
CC(=O)NC1CC2CCC(C1)N2Cc1ccc(C)cc1 (centres undefined) | 5% | i | 0.6% | 1e-09 | i
COc1ccc(Nc2nc(CC(C)=O)ns2)cc1OC | -3% | i | 0.7% | 1.1e-08 | i
CCOC(=O)N1CCC(N2Cc3cccc(C(=O)NCC4CCN(CC(C)C)C4)c3C2=O)CC1 (centres undefined) | 2% | x | 2.4% | x | x
c1ccc2c(c1)nc(N1CCOCC1)c1c3ccccc3[nH]c21 | 16% | i | 1.8% | 1e-09 | i
CC12CC(NC(=O)N1Cc1ccccc1)c1ccccc1O2 (centres undefined) | 8% | i | 0.4% | 1e-09 | i
Cn1c(=O)c2c(nc(Br)n2CCSc2ncccn2)n(C)c1=O | x | i | x | 2.6e-08 | i
O=c1cc(CN2CCN(c3ccccc3)CC2)c2cc(O)c(-c3ccccc3)cc2o1 | -14% | i | 1.0% | 8.7e-09 | i
Cc1nc(Nc2ccc3c(c2)OCCO3)c2nnn(Cc3ccccc3Cl)c2n1 | -3% | i | -1.7% | 4.2e-08 | i
Cc1ccc(OCC(=O)NCc2ccco2)cc1C | 8% | i | -0.9% | 2.4e-08 | i
CCN(CC)CCNc1nc2c(c(=O)[nH]c(=O)n2C)n1CC(O)COc1ccc(Cl)cc1Cl (centres undefined) | -6% | i | 0.2% | 2.9e-08 | i
Cc1c(CN2CCC(C)CC2)c(=O)n(-c2ccccc2)n1C | 5%[11.4 µM] | x | -1.5% | x | x
CO[C@H]1COC(=O)[C@@H](Cc2ccccc2)NC(=O)[C@@H](C)COC(=O)CCC[C@@H]1C | -2%[11.4 µM] | x | 0.3%[11.5 µM] | x | x
O=C(O)c1ccccc1OCCOCCOc1ccccc1C(=O)O | 0% | i | -2.4% | 1e-09 | i
CC(=O)OC[C@@H]1O[C@@H](O/N=C2/C[C@@H](O)[C@@H](O)[C@@H]3[C@@H]4C(=O)N(C[C@@H]5CCCO5)C(=O)[C@H]4CC[C@@H]23)[C@H](OC(C)=O)[C@H](OC(C)=O)[C@@H]1OC(C)=O | 1%[11.4 µM] | x | 0.1%[11.5 µM] | x | x
CCn1c(CNC(=O)c2cccs2)nnc1SCC(=O)NCCc1ccccc1 | u | i | -0.4% | 1e-09 | i
CCC(=O)N1C(C(=O)N2CCCC2)CSC1c1ccc(OC)cc1 (centres undefined) | u | x | -1.1% | x | x
COc1ccccc1C1/C(=C(/O)c2ccccc2)C(=O)C(=O)N1CC(C)C (centres undefined) | 0% | i | -0.5% | 2e-09 | i
C1CN(c2nc3nonc3nc2N2CCOCC2)CCO1 | 3% | i | 0.9% | 1.2e-09 | i
Cc1cc(NC(=O)CSc2nc(-c3ccccc3)cs2)no1 | -3% | i | 1.1% | 1e-09 | i

Some of the entries above in a different format.
Cc1cc(NC(=O)CSc2nc(-c3ccccc3)cs2)no1
  TSHR agonist: -3%
  A488 autofl: i
  AID923: 1.1%
  A647 fluor: 1e-09
  Resorufin autofl: i
CC12CC(NC(=O)N1Cc1ccccc1)c1ccccc1O2 (centres undefined)
  TSHR agonist: 8%
  A488 autofl: i
  AID923: 0.4%
  A647 fluor: 1e-09
  Resorufin autofl: i
Cc1nnc(C)n1/N=C/C=C/c1ccccc1
  TSHR agonist: 1%
  A488 autofl: i
  AID923: 2.2%
  A647 fluor: 1.4e-09
  Resorufin autofl: i

Whole records from above. Order of screens: TSHR agonist, A488 autofl, AID923, A647 fluor, Resorufin autofl
Cn1c(=O)c2c(nc(Br)n2CCSc2ncccn2)n(C)c1=O is entered as x, i, x, 2.6e-08, i
CCCS(=O)(=O)C(=C1NCCO1)S(=O)(=O)CCC is entered as 0%, i, 1.5%, 3.5e-08, i

Further structures.
SMILES | TSHR agonist | A488 autofl | AID923 | A647 fluor | Resorufin autofl
CCOC(=O)C1CCN(C(=O)CSC2=NCCS2)CC1 | -14% | i | -0.4% | 2.5e-08 | i
COc1ccc(OCC(=O)c2c(O)c3ccccc3oc2=O)cc1 | 29% | i | -1.9% | 1e-09 | i
COc1ccc(-c2noc(CCC(=O)NC3CCCCC3)n2)cc1OC | 3%[11.4 µM] | i | 2.2% | 1e-09 | i
CCN1CCCC1CNC(=O)CSCc1nc(-c2ccccc2C)oc1C (centres undefined) | -5%[11.4 µM] | i | 0.6% | 1.2e-08 | i
CCOc1cc2[nH]c(=S)n(CCOC)c(=O)c2cc1OCC | 0% | i | -2.3% | 3.2e-08 | i
Cc1cccc(CN2CCC(CNC(=O)C3CCCN(S(=O)(=O)c4cnc[nH]4)C3)CC2)c1 (centres undefined) | u | x | 1.3% | x | x
COc1ccc(-c2cc(C(=O)Nc3cc(OC)c(OC)c(OC)c3)no2)cc1OC | 6%[11.4 µM] | i | -0.7% | 9.3e-09 | i
CS(=O)(=O)N1CCC2(CCCN(c3ccncc3)C2)CC1 | -1% | i | -0.8% | 1e-09 | i
COc1ccc2c(Cl)c(-c3nnc(SCC(N)=O)n3C)sc2c1 | 17% | x | -2.3% | x | x
Cc1ccc(S(=O)(=O)NC(CC(=O)O)c2ccco2)cc1 (centres undefined) | -3% | i | 1.4% | 2.4e-09 | i
N#Cc1nc(-c2ccco2)oc1NCCN1CCOCC1 | 4% | i | -1.0% | 1.5e-09 | i
COc1ccc(S(=O)(=O)CCC(=O)N2CC(=O)N(CCc3ccccc3)C(=O)C2)cc1 | -3% | i | -1.2% | 2.7e-08 | i
Cn1c(=O)c2c(nc(Br)n2CCc2ccccc2)n(C)c1=O | u | i | 0.4% | 1.6e-08 | i
COc1ccc(C(c2sc3ncnn3c2O)N2CC(C)OC(C)C2)cc1OC (centres undefined) | 7% | x | -1.5% | x | x
N=C(c1ccc2ccccc2c1)c1ccccc1Cc1ccccc1 | 5%[11.4 µM] | i | -1.8%[11.5 µM] | 6.5e-09 | i
CCCn1c(-c2ccc(F)cc2)nc2c(NCCN3CCSCC3)nc(C)nc21 | u | x | -1.3% | x | x
Cc1ccc(C(=O)c2coc3ccc(O)c(CN4CCN(C)CC4)c23)cc1 | u | i | 0.9% | 2.6e-08 | i
Nc1nonc1-c1nc2ccccc2[nH]1 | 12% | i | 1.0% | 8.1e-09 | i
Cc1cc(C)n(CC(=O)n2c3c(c4ccccc42)CCCC3)n1 | x | i | x | 1.7e-08 | i
CCCS(=O)(=O)N1CCCC(C(=O)N2CCC(Cc3ccccc3)CC2)C1 (centres undefined) | 6% | i | 1.4% | 1e-09 | i
CC1(C)[C@@H]2CC[C@@]1(CS(=O)(=O)Nc1ccccc1)C(=O)C2 | -2%[11.4 µM] | i | 3.5%[11.5 µM] | 4.2e-08 | i
COC(=O)c1ccc(C)cc1 | -3% | x | 2.1% | x | x
COc1ccc(NC(=O)c2cc3ccccn3n2)cc1 | 10% | x | -1.2% | x | x
CN(C)CCCn1c2c3ccccc3ccc2c2oc(=O)c3ccccc3c21 | u | i | 11%[11.5 µM] | 1e-09 | i
O=C(NO)C1CC2C=CC1C2 (centres undefined) | -2% | i | -0.2% | 5.2e-09 | i
COC(=O)[C@H]1C[C@@H]1[C@H](NC(=O)c1cccnc1)c1ccccc1 | -1% | x | 1.6% | x | x
Cc1ccc(N(C(=O)Cn2nnc(-c3ccc(C)o3)n2)C(C(=O)NC2CCCC2)c2ccco2)cc1 (centres undefined) | 16% | i | -4.0% | 1e-09 | i
[N-]=[N+]=CC(=O)CNC(=O)[C@@H](Cc1ccccc1)N1C(=O)c2ccccc2C1=O | -15% | i | -1.4% | 4.7e-09 | i
CC1=NC(C)Cc2ccccc21 (centres undefined) | 0%[11.4 µM] | i | 0.4% | 1.7e-09 | i
COc1ccccc1CN1CCCC2(CCN(C(C)=O)CC2)C1 | u | i | 1.0% | 1.9e-08 | i

Screens deposited in PubChem by National Center for Advancing Translational Sciences (NCATS).
